Source: PubChem BioAssay
Vaccinia inh – blocks a specific stage of Vaccinia orthopoxvirus infection, primary screen, cell-based, single point; Vaccinia-infected cells, mCherry/Venus stage reporter fluorescence; stronger effect = lower value; some inactives read as strong as hits; activity change (mCherry), % (concentration not given with the values); 89,000 compounds, 0.01% hits;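 active = mCherry past -33% and 40 or more points under the early reporter, replicates agreeing; inconclusive = past -33% without that gap or agreement; tested in A549 cells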;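 note: scaled between vehicle wells and reference inhibitor wells; 23 nL library stock went into each well; one replicate is shown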
Vaccinia inh Venus – recorded beside Vaccinia inh, whose call it bears; activity change (Venus), %; measured here: Venus reporter, other viral stage;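 negative = less Venus signal; first of two replicates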
An asterisk follows results filed as active; ? = inconclusive; / = not tested or not shown. The list is partial. The share of hits here may be higher or lower than overall.

SMILES | Vaccinia inh Venus | Vaccinia inh
CO[C@H]1CN(C)C(=O)c2cc(NC(C)=O)ccc2OC[C@H](C)N(S(=O)(=O)c2cn(C)cn2)C[C@H]1C | 7.7 | 13.3
C[C@@H]1CN([C@H](C)CO)C(=O)c2cccc(NS(=O)(=O)c3ccc(F)cc3)c2O[C@H]1CN(C)Cc1ccncc1 | 3.6 | 6.4
COc1ccc(S(=O)(=O)N(C)C[C@@H]2Oc3ccc(NC(=O)Nc4ccc(C(F)(F)F)cc4)cc3CC(=O)N([C@@H](C)CO)C[C@H]2C)cc1 | -2.9 | -28.0
O=C(CC1CC1)N1CC2(C1)[C@H](c1ccccc1)[C@H](CO)N2CC1CCOCC1 | -3.1 | -5.0
C[C@@H]1CN([C@H](C)CO)C(=O)Cc2cc(NS(=O)(=O)c3cccs3)ccc2O[C@@H]1CN(C)Cc1ccc(C(F)(F)F)cc1 | -12.4 | -3.7
C[C@@H]1CN([C@H](C)CO)C(=O)c2cccc(NC(=O)C3CC3)c2O[C@H]1CN(C)Cc1ccc(C(=O)Nc2ccccc2N)cc1 | 5.3 | 3.1
C=CCNC(=O)[C@H]1[C@@H]2C(=O)O[C@@H](c3ccccc3)[C@@H](c3ccccc3)N2[C@@H](c2ccc(OCCO)cc2)[C@]12C(=O)Nc1ccc(C#CCC(C(=O)OC)C(=O)OC)cc12 | -1.0 | -8.8
CO[C@@H]1CN(C)C(=O)c2ccc(NS(=O)(=O)c3cccc(Cl)c3)cc2OC[C@@H](C)NC[C@H]1C | 7.5 | 14.1
C[C@@H]1CN([C@@H](C)CO)C(=O)c2cc(NC(=O)Cn3cnnn3)ccc2O[C@@H]1CN(C)Cc1ccncc1 | 8.5 | 13.6
C[C@H](O)C#Cc1ccc2c(c1)O[C@H](CN(C)C(=O)C1CCC1)[C@@H](C)CN([C@@H](C)CO)S2(=O)=O | -1.2 | -0.5
COc1ccc(S(=O)(=O)Nc2cccc3c2O[C@@H](CN(C)S(=O)(=O)c2ccc(OC)cc2)[C@@H](C)CN([C@@H](C)CO)C3=O)cc1 | / | ?
C[C@@H]1CN([C@H](C)CO)C(=O)Cc2cc(NC(=O)CCCCCC(=O)Nc3ccccc3N)ccc2O[C@@H]1CN(C)C | 11.2 | 2.2
C[C@@H]1CN([C@H](C)CO)S(=O)(=O)c2ccc(C#CC3CC3)cc2O[C@H]1CN(C)C(=O)C1CCC1 | -11.1 | -19.0
Cc1cccc(S(=O)(=O)N2CC[C@@H]3[C@H]2c2cc(C4=CCCCC4)ccc2N[C@@H]3CO)c1 | -7.0 | 0.6
O=C(C[C@H]1CC[C@H]2[C@@H](COC[C@@H](O)CN2Cc2cc(F)ccc2F)O1)NCc1ccc(Oc2ccccc2)cc1 | / | ?
COc1ccc(NC(=O)Nc2ccc3c(c2)CC(=O)N([C@@H](C)CO)C[C@H](C)[C@@H](CN(C)Cc2ccc(C(=O)O)cc2)O3)cc1 | -4.0 | -2.5
CCC(=O)N1[C@H](CO)[C@H](c2ccc(-c3ccc(F)cc3)cc2)C12CN(C(C)=O)C2 | 5.5 | 7.6
COc1cccc(NC(=O)N2C[C@H](O)COC[C@@H]3O[C@@H](CC(=O)NC4CCCC4)CC[C@H]32)c1 | 6.6 | 10.3
CNC[C@@H]1Oc2ccc(NC(=O)NC(C)C)cc2C(=O)N([C@H](C)CO)C[C@@H]1C | -0.3 | 12.9
COCC(=O)N(C)C[C@@H]1[C@@H](c2ccccc2)[C@H](CO)N1C(=O)NC(C)C | 18.9 | 25.3

By substructure: the entries above with a CF3 group
SMILES | Vaccinia inh Venus | Vaccinia inh
COc1ccc(S(=O)(=O)N(C)C[C@@H]2Oc3ccc(NC(=O)Nc4ccc(C(F)(F)F)cc4)cc3CC(=O)N([C@@H](C)CO)C[C@H]2C)cc1 | -2.9 | -28.0
C[C@@H]1CN([C@H](C)CO)C(=O)Cc2cc(NS(=O)(=O)c3cccs3)ccc2O[C@@H]1CN(C)Cc1ccc(C(F)(F)F)cc1 | -12.4 | -3.7

Other structures
SMILES | Vaccinia inh Venus | Vaccinia inh
O=C(C[C@@H]1C[C@@H]2c3cc(NC(=O)NC4CCCC4)ccc3O[C@@H]2[C@@H](CO)O1)NCCN1CCCCC1 | 5.9 | 12.9
CCCNC(=O)N1C[C@@H]2[C@H](c3ccccc31)[C@@H](CO)N2CC1CCCCC1 | 5.4 | 10.7
C[C@@H]1CCCCO[C@@H](CN(C)C(=O)C2CCCCC2)[C@@H](C)CN([C@H](C)CO)C(=O)c2cc(NS(=O)(=O)c3ccc(Cl)cc3)ccc2O1 | -14.1 | -10.9
CCCN1C[C@H](C)[C@H](OC)CN(C)C(=O)c2ccc(NC(=O)c3ccccc3)cc2OC[C@H]1C | -0.7 | -5.4
COCC#Cc1ccc2c(c1)O[C@H](CN(C)S(=O)(=O)c1cccc(F)c1)[C@@H](C)CN([C@@H](C)CO)S2(=O)=O | -4.8 | -3.9
O=C(Nc1ccccc1F)N1CC(=O)N2[C@H](CO)[C@@H](c3ccc(-c4cccnc4)cc3)[C@@H]2C1 | -4.0 | -5.2
COc1ccc(NC(=O)Nc2cccc3c2O[C@H](CN(C)Cc2ccc(-c4ccccc4)cc2)[C@H](C)CN([C@@H](C)CO)C3=O)cc1 | -4.0 | -20.4
O=S(=O)(c1ccc(F)cc1)N1CC[C@@H]2[C@H](CO)Nc3ccc(C#CC4CCCCC4)cc3[C@@H]21 | -1.9 | -21.7
CCCN(C)C[C@H]1Oc2cc(C#CC(C)(C)O)ccc2S(=O)(=O)N([C@H](C)CO)C[C@H]1C | 1.2 | 9.1
CN1C(=O)c2cc(NS(=O)(=O)c3ccc(F)cc3)ccc2OC[C@@H]2O[C@H](CC(=O)O)CC[C@H]21 | 12.0 | 5.1
COc1ccc(-c2ccc3c(c2)O[C@@H](CN(C)CC2CCOCC2)[C@@H](C)CN([C@H](C)CO)S3(=O)=O)cc1 | -14.9 | -14.8
O=C(Nc1cccc(F)c1)N1CCCCN2[C@H](CO)[C@H](c3ccc(-c4ccccc4F)cc3)[C@@H]2C1 | / | ?
C[C@H]1CN([C@@H](C)CO)C(=O)Cc2cc(NC(=O)c3ccncc3)ccc2O[C@H]1CN(C)C(=O)Nc1ccc(F)cc1 | -7.6 | -5.0
CO[C@@H](CN(C)C(=O)C1CCOCC1)[C@H](C)CN([C@H](C)CO)S(=O)(=O)c1ccccc1 | 4.8 | 9.0
CC(=O)N(C)C[C@H]1Oc2cc(C#Cc3ccccn3)ccc2S(=O)(=O)N([C@@H](C)CO)C[C@@H]1C | 10.1 | 18.2
C[C@H](CO)N1C[C@H](C)[C@@H](CN(C)CC2CCOCC2)Oc2ncc(C#Cc3ccccc3)cc2C1=O | 1.5 | -10.1
COc1ccccc1NC(=O)N(C)C[C@@H]1Oc2ncc(C#CCN(C)C)cc2C(=O)N([C@@H](C)CO)C[C@@H]1C | -2.4 | -0.3
C[C@H](CO)N1C[C@H](C)[C@@H](CN(C)C(=O)Nc2ccccc2)Oc2cc(C#CC3(O)CCCC3)ccc2S1(=O)=O | -0.7 | 1.6
COc1ccc(NC(=O)Nc2ccc3c(c2)[C@H]2C[C@H](CC(=O)NCc4ccc5c(c4)OCO5)O[C@H](CO)[C@H]2O3)cc1 | 5.4 | 6.3
O=C(C[C@H]1CC[C@H]2[C@@H](COC[C@@H](O)CN2S(=O)(=O)c2ccccc2)O1)Nc1ccc(-c2ccccc2)cc1 | / | ?
COc1ccccc1NC(=O)N[C@H]1CC[C@@H](CC(=O)NCc2ccc(Cl)c(Cl)c2)O[C@H]1CO | -11.4 | -8.7
COCCNC(=O)C[C@@H]1CC[C@@H]2[C@@H](COc3ccc(NC(=O)Cc4ccccc4)cc3C(=O)N2C)O1 | 12.4 | 6.9
CCCC#Cc1ccc([C@H]2[C@@H](CO)N3CCCCN(CC4CCOCC4)C[C@H]23)cc1 | 1.3 | 2.2
C[C@@H]1CCCCO[C@H](CN(C)C(=O)CCCN(C)C)[C@H](C)CN([C@@H](C)CO)C(=O)c2cc(NS(=O)(=O)c3ccc(F)cc3)ccc2O1 | -5.5 | 11.9
COC(=O)C[C@H]1CC[C@H]2NC[C@H](O)COC[C@@H]2O1 | 10.0 | 6.6
O=S(=O)(Cc1ccccc1)N1CCCCN2[C@@H](CO)[C@@H](c3ccc(C#Cc4ccccc4)cc3)[C@@H]2C1 | / | ?
Cc1ccccc1-c1ccc([C@@H]2[C@H](CO)N3CCCCN(C(=O)CN4CCOCC4)C[C@@H]23)cc1 | -4.6 | 1.6
COc1ccc(S(=O)(=O)N2C[C@H](O)COC[C@@H]3O[C@H](CC(=O)N[C@@H]4CCN(Cc5ccccc5)C4)CC[C@H]32)cc1 | 0.3 | -10.4
C[C@H](CO)N1C[C@H](C)[C@@H](CN(C)C(=O)Cc2ccccc2)Oc2ncc(C#CC3(O)CCCC3)cc2C1=O | 3.8 | 6.0
CC(C)CNC(=O)[C@@]1(C)c2ccccc2C(=O)N(Cc2ccccc2)[C@H]1c1ccc(CO)cc1 | 18.2 | 11.8
CCC(=O)N(C)C[C@@H]1Oc2ncc(C#CCC3CCCC3)cc2C(=O)N([C@@H](C)CO)C[C@H]1C | -12.0 | -10.3
CC(C)NC(=O)Nc1ccc2c(c1)C(=O)N([C@H](C)CO)C[C@H](C)[C@H](CN(C)C(=O)Nc1ccccc1)OCCCC[C@@H](C)O2 | 6.0 | 14.7
C[C@@H](NC(=O)C[C@@H]1CC[C@@H](NC(=O)CN2CCOCC2)[C@@H](CO)O1)c1ccccc1 | 3.0 | 3.2
C[C@H](CO)N1C[C@H](C)[C@@H](CN(C)S(=O)(=O)c2cn(C)cn2)OCCCC[C@H](C)Oc2ccc(NC(=O)CCC(F)(F)F)cc2C1=O | 12.8 | 29.3
COCC(=O)Nc1ccc2c(c1)[C@H]1C[C@H](CC(=O)N[C@@H](C)c3ccccc3)O[C@H](CO)[C@H]1O2 | -2.0 | -0.1
C[C@@H]1CCCCO[C@H](CN(C)C(=O)Cc2ccccc2)[C@H](C)CN([C@H](C)CO)C(=O)c2cc(NC(=O)c3ccccc3)ccc2O1 | / | ?
CCC(=O)N(C)C[C@@H]1Oc2ncc(/C=C/c3ccccc3)cc2C(=O)N([C@H](C)CO)C[C@@H]1C | 3.5 | 15.8
C/C=C/c1ccc([C@@H]2[C@H](CO)N(C(=O)CC)C23CN(S(=O)(=O)CC)C3)cc1 | 8.6 | 2.8
CCCN(C)C[C@@H]1OCCCC[C@@H](C)Oc2ccc(NS(=O)(=O)c3ccccc3)cc2C(=O)N([C@@H](C)CO)C[C@@H]1C | -3.4 | -10.9
COc1ccc(NC(=O)N(C)C[C@@H]2Oc3c(NS(=O)(=O)c4cn(C)cn4)cccc3C(=O)N([C@@H](C)CO)C[C@H]2C)cc1 | 12.3 | 13.1
C[C@@H]1CN([C@@H](C)CO)C(=O)Cc2cc(NS(C)(=O)=O)ccc2O[C@H]1CN(C)Cc1ccccc1 | 8.7 | 9.8
C[C@H]1CN([C@@H](C)CO)C(=O)Cc2cc(NS(=O)(=O)c3cn(C)cn3)ccc2O[C@@H]1CN(C)Cc1ccc(Oc2ccccc2)cc1 | 10.2 | 4.1
C[C@H]1CCCCO[C@@H](CN(C)C(=O)NC2CCCCC2)[C@@H](C)CN([C@@H](C)CO)C(=O)c2cc(NC(=O)CCC(F)(F)F)ccc2O1 | -26.8 | -26.0
O=C(C[C@@H]1CC[C@H]2[C@@H](COC[C@@H](O)CN2C(=O)c2ccccc2F)O1)N1CCN(c2ccccc2)CC1 | 1.4 | -4.2
Cc1ccc(S(=O)(=O)N(C)C[C@H]2Oc3c(NC(=O)CCCCCC(=O)Nc4ccccc4N)cccc3C(=O)N([C@@H](C)CO)C[C@@H]2C)cc1 | 12.5 | 0.9
Cc1noc(C)c1NC(=O)N(C)C[C@H]1Oc2ncc(C#CC3CCCCC3)cc2C(=O)N([C@H](C)CO)C[C@H]1C | -5.1 | -6.0
C[C@@H]1CN([C@@H](C)CO)C(=O)c2cccc(NC(=O)c3ccncc3)c2O[C@@H]1CN(C)CC1CCCCC1 | 8.8 | 3.6
COc1cccc(NC(=O)N[C@H]2C=C[C@@H](CC(=O)Nc3ccccc3)O[C@@H]2CO)c1 | -3.2 | -3.7
O=C(N[C@@H]1C[C@@H]2O[C@@H](CO)CC[C@@H]2O[C@@H]1CCc1ccc(-c2cccnc2)cc1)c1cccc(F)c1 | -18.2 | -30.6
Cc1noc(C)c1NC(=O)Nc1ccc2c(c1)C(=O)N([C@H](C)CO)C[C@@H](C)[C@H](CN(C)S(=O)(=O)c1cn(C)cn1)O2 | 5.0 | 4.9
O=C(NCC[C@@H]1CC[C@@H](NS(=O)(=O)Cc2ccccc2)[C@H](CO)O1)C1CC1 | -9.8 | -12.5
C[C@H](CO)N1C[C@H](C)[C@H](CN(C)S(=O)(=O)c2ccc(-c3ccccc3)cc2)OCc2cn(nn2)CCCC1=O | -6.0 | -19.4
COCC(=O)N1C[C@@H](C)[C@H](OC)CN(C)C(=O)c2cc(NC(=O)C3CCC3)ccc2OC[C@H]1C | 4.1 | 0.6
COc1cccc(NC(=O)N(C)C[C@H]2Oc3cc(-c4cccc(C(=O)N(C)C)c4)ccc3S(=O)(=O)N([C@H](C)CO)C[C@H]2C)c1 | 20.2 | 29.4
Cc1ccccc1S(=O)(=O)NCC[C@@H]1CC[C@H](NC(=O)Nc2cccc(F)c2)[C@H](CO)O1 | -3.3 | -15.5

3 entries from above, with each value named.
COc1ccc(NC(=O)Nc2cccc3c2O[C@H](CN(C)Cc2ccc(-c4ccccc4)cc2)[C@H](C)CN([C@@H](C)CO)C3=O)cc1
  Vaccinia inh Venus: -4.0 | Vaccinia inh: -20.4
COCC(=O)Nc1ccc2c(c1)[C@H]1C[C@H](CC(=O)N[C@@H](C)c3ccccc3)O[C@H](CO)[C@H]1O2
  Vaccinia inh Venus: -2.0 | Vaccinia inh: -0.1
C=CCNC(=O)[C@H]1[C@@H]2C(=O)O[C@@H](c3ccccc3)[C@@H](c3ccccc3)N2[C@@H](c2ccc(OCCO)cc2)[C@]12C(=O)Nc1ccc(C#CCC(C(=O)OC)C(=O)OC)cc12
  Vaccinia inh Venus: -1.0 | Vaccinia inh: -8.8
